Bioassay records as filed in PubChem.
TRPML1 inh – qHTS for Inhibitors of the Human Mucolipin Transient Receptor Potential 1 (TRPML1) | 0.02% of 390,000 active | activity change, negative = inhibition, % (test concentration not listed) | TRPML1-inducible cells, Ca2+ dye fluorescence, FDSS; hits give low values; inhibition of EC80 agonist-evoked calcium signal | AID 624415, 2012 | Mucolipin-1 (Homo sapiens), Q9GZU1; in the data active means activity change below about -50%; inconclusive means about -30% to -50%; inactive means above about -30%;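 further: stimulus is agonist 54-4 at its EC80 concentration; on the % scale 0 is the no-effect control and ±100 the full control effect; compound concentration not given in the record; the text of the record puts the active cut at -80%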
Target sequence (Q9GZU1 whole entry, looked up): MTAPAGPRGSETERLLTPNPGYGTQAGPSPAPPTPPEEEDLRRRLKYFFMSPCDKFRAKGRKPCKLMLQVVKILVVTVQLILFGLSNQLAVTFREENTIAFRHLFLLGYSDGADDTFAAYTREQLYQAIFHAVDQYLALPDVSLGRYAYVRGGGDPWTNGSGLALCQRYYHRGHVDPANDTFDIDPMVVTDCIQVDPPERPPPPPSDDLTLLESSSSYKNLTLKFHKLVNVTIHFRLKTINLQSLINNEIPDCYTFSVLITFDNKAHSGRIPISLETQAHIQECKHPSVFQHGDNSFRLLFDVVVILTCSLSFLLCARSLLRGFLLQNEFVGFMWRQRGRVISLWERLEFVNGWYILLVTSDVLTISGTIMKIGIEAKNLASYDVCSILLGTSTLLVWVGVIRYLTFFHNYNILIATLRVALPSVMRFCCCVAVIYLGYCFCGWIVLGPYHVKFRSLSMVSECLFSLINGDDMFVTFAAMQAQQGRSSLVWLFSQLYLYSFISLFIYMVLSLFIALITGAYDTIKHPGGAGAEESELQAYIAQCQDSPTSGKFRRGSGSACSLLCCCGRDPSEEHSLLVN
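TRPML1-DL cells, Tet-induced overnight (~16 h, 37 °C) at 1,500 cells/well, were loaded with Ca8 no-wash dye plus quencher for 45-90 min at room temperature. Compounds were pinned during FDSS kinetic reading; agonist 54-4 at EC80 (4 uM final) then added.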
TRPV1 potentiator – HTS Assay for Compounds that Act as Potentiators of the Vanilloid Receptor 1; Transient receptor potential cation channel subfamily V member 1 (Homo sapiens), Q8NER1; TRPV1-expressing cells, Fluo-8 calcium influx, capsaicin EC20 potentiation; host cell line not named in the record; control for the full effect not named in the record; potentiation, % at 8.33 µM; 0.02% of 320,000 active; active means potentiation above 80%; inconclusive means 30% to 80%; inactive means below 30%; further: 0% is about no effect
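Cells expressing TRPV1 were dye-loaded with Fluo-8 and read kinetically: 10 s baseline, 3 min after compound (agonist portion), then 2 min after EC20 capsaicin (allosteric enhancer portion). Calcium-bound dye fluorescence at 480/520 nm.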
CtBP-E1A blk – qHTS Assay for Inhibitors of the CtBP/E1A Interaction | 0.49% of 340,000 active | activity change, % (no concentration beside the values) | AID 651724, 2012 | AlphaScreen GST-E1A/His-CtBP binding, 1536-well; hits give low values; control for the full effect not named in the record; in the data active means activity change below about -65%; inconclusive means about -30% to -65%; inactive means above about -30%; further: on the % scale 0 is the no-effect control and ±100 the full control effect; compound concentration not given in the record
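In 5 uL wells, 23 nL compound meets equimolar GST-E1A and His-CtBP (5X stock 125 nM each) for 2 h, 37 °C. Beads (5X, 50 ug/mL) then 1 h, 37 °C, dark.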
TRPML1 ag – qHTS for Agonists of the Human Mucolipin Transient Receptor Potential 1 (TRPML1) | TRPML1-expressing cells, Ca2+ dye fluorescence, FDSS; host cell line not named in the record; reference of the full effect not given here | 0.12% of 410,000 active | Mucolipin-1 (Homo sapiens), Q9GZU1 | AID 624414, 2012 | activation, % (no concentration beside the values); in the data active = activation above about 50%; inconclusive = about 30% to 50%; inactive = below about 30%; further: 0% is about no effect; the text of the record puts the active cut at 80%
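Tet-induced TRPML1-DL cells, 1,500 per well, cultured overnight, were loaded with a no-wash Ca2+ dye for 45–90 min. Calcium fluorescence was recorded on the FDSS for 110 s after compound addition, before the EC80 agonist (4 uM 54-4) was added.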
Six1-Eya2 blk – qHTS Assay for Inhibitors of the Six1/Eya2 Interaction | AlphaScreen GST-Six1/His-Eya2 binding, biochemical; hits give low values; control for the full effect not named in the record | 0.56% of 360,000 active | AID 651725, 2012 | activity change, % (test concentration not listed); in the data active = activity change below about -65%; inconclusive = about -30% to -65%; inactive = above about -30%; further: on the % scale 0 is the no-effect control and ±100 the full control effect; compound concentration not given in the record
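Homogeneous AlphaScreen proximity assay pairing GST-Six1 with His-tagged Eya2 (added as 5X mix: 250 nM and 500 nM) in 50 mM Tris pH 8.0, 300 mM NaCl, 1 mM TCEP. Glutathione donor and nickel acceptor beads; 1 h, 37 °C, dark.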
D2 PAM – Beta-Arrestin HTS for Positive Allosteric Modulators of the Human D2 Dopamine Receptor: Potentiators; D(2) dopamine receptor (Homo sapiens), P14416; 0.23% of 360,000 active; DiscoveRx D2 beta-arrestin cells, luminescence, 90 min; 100% = 57 uM dopamine signal; potentiation, % (test concentration not listed); active = potentiation of 50% or more; inconclusive = 30% to 50%; inactive = 30% or less;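 further: compound concentration not given in the record; tested on top of an EC20 dose of dopamine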
Target sequence (P14416 whole entry, looked up): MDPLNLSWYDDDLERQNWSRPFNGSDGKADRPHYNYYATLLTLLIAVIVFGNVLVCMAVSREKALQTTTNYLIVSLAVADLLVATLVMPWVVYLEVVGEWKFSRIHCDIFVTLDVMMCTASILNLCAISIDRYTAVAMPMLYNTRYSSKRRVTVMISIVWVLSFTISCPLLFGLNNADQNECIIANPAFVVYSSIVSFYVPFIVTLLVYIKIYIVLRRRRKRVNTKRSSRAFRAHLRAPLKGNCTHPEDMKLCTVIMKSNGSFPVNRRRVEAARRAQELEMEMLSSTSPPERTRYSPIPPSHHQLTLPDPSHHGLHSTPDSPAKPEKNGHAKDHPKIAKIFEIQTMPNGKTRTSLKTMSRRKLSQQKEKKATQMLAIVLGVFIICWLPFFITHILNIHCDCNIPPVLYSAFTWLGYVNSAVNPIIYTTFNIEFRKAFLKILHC
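PathHunter beta-arrestin assay in DiscoveRx D2 cells. Compounds were added with an EC20 of dopamine (50 nM final) for 90 min at 37 deg C. Luminescence was read 1 h after detection reagent, with 57 uM dopamine as the EC100 control.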
Starred values were filed as active, the others as inactive; ? = inconclusive; nt = no result given.

Preview:
SMILES | TRPML1 inh | TRPV1 potentiator | CtBP-E1A blk | TRPML1 ag | Six1-Eya2 blk | D2 PAM
CS(=O)(=O)Nc1ccc(F)cc1 | nt | nt | 3 | -0.7 | -2 | nt
Cc1ccc(S(=O)(=O)NCC(=O)NCC(=O)N2CCC(C)CC2)cc1 | -7 | ? | -11 | 0.2 | 10 | 0
CC(C(=O)Nc1cccnc1)n1cc([N+](=O)[O-])cn1 (stereo not given) | -4 | 8 | -14 | -0.9 | 0 | -6
Cc1cc(-c2nnc(CCC(=O)N(C)Cc3cccc4ccccc34)o2)no1 | 7 | -3 | 13 | 0.6 | 2 | 1
Cc1cc(C(F)F)n2ncc(C(=O)N3CCCCC3)c2n1 | 4 | -1 | 7 | -0.6 | -1 | 1
Cc1c([N+](=O)[O-])cc(C(=O)Nc2ccc(Cc3ccncc3)cc2)cc1[N+](=O)[O-] | 15 | -3 | -11 | 2.5 | -16 | 4
CCCCc1ccc(S(=O)(=O)N2CCC3(CC2)OCCO3)cc1 | -12 | 3 | 2 | 14 | 9 | 18
O=C(CN1C(=O)COc2ccc(Cl)cc21)N1CCOCC1 | -9 | 4 | 7 | -0.3 | 1 | 2
CCC(=O)NC(Nc1cccc(C)n1)(C(F)(F)F)C(F)(F)F | 8 | 3 | 15 | 0.1 | 2 | -1
Cc1ccc(CNC(=O)CCn2cc(-c3ccc(C)cc3)nc2CCN)cc1 | -16 | -47 | -12 | -0.4 | -10 | -15

All compounds of this part, from the first entry:
SMILES | TRPML1 inh | TRPV1 potentiator | CtBP-E1A blk | TRPML1 ag | Six1-Eya2 blk | D2 PAM
CS(=O)(=O)Nc1ccc(F)cc1 | nt | nt | 3 | -0.7 | -2 | nt
Cc1ccc(S(=O)(=O)NCC(=O)NCC(=O)N2CCC(C)CC2)cc1 | -7 | ? | -11 | 0.2 | 10 | 0
CC(C(=O)Nc1cccnc1)n1cc([N+](=O)[O-])cn1 (stereo not given) | -4 | 8 | -14 | -0.9 | 0 | -6
Cc1cc(-c2nnc(CCC(=O)N(C)Cc3cccc4ccccc34)o2)no1 | 7 | -3 | 13 | 0.6 | 2 | 1
Cc1cc(C(F)F)n2ncc(C(=O)N3CCCCC3)c2n1 | 4 | -1 | 7 | -0.6 | -1 | 1
Cc1c([N+](=O)[O-])cc(C(=O)Nc2ccc(Cc3ccncc3)cc2)cc1[N+](=O)[O-] | 15 | -3 | -11 | 2.5 | -16 | 4
CCCCc1ccc(S(=O)(=O)N2CCC3(CC2)OCCO3)cc1 | -12 | 3 | 2 | 14 | 9 | 18
O=C(CN1C(=O)COc2ccc(Cl)cc21)N1CCOCC1 | -9 | 4 | 7 | -0.3 | 1 | 2
CCC(=O)NC(Nc1cccc(C)n1)(C(F)(F)F)C(F)(F)F | 8 | 3 | 15 | 0.1 | 2 | -1
Cc1ccc(CNC(=O)CCn2cc(-c3ccc(C)cc3)nc2CCN)cc1 | -16 | -47 | -12 | -0.4 | -10 | -15
CCCNC(=O)C1CCN(S(=O)(=O)c2cccc3nonc23)CC1 | -8 | -3 | 2 | 0.0 | 2 | 1
C/C(=N\NS(=O)(=O)c1ccc(Cl)c([N+](=O)[O-])c1)c1ccc(C)o1 | 12 | 10 | 4 | -0.9 | -6 | 8
Cn1c(=O)c2c(SCC(=O)Nc3cccc(F)c3)nc(-c3ccco3)nc2n(C)c1=O | 21 | 16 | -3 | 0.2 | 1 | 6
COc1ccc(C(=O)N2CCC(C(=O)c3c(C)cc(C)cc3C)CC2)cc1 | -11 | -10 | -5 | 1.1 | -2 | -12
CCCCCCN1C[C@H](O)[C@@H](n2cc(COC(=O)c3ccccc3)nn2)C[C@@H]1c1ccc(C)cc1 | -12 | nt | -13 | 1.4 | -11 | 2
COc1ccc2[nH]c(C)c(CCN(Cc3cccs3)C(=S)Nc3ccccc3OC)c2c1 | 2 | -9 | -1 | 8.7 | -21 | 2
COc1ccc2nc(NC(=O)CSc3n[nH]c(N)n3)sc2c1 | 13 | -7 | -13 | 0.6 | -4 | 4
CCOC(=O)N1CCN(C(=O)c2ccccc2NC(=O)c2ccc(OC)cc2)CC1 | 8 | -8 | 5 | 0.6 | 1 | -4
Cc1cc(NC(=O)COC(=O)c2ccco2)no1 | 12 | -1 | 0 | -0.3 | 4 | 1
O=C(Cc1cccs1)NCc1cccs1 | 10 | 1 | 11 | 0.0 | 4 | -12
COCCN(CC(=O)NCc1ccccc1)C(=O)CCC(=O)Nc1ccccn1 | ? | -2 | -4 | -0.2 | 7 | -6
Cc1ccccc1OCCNC(=S)Nc1ccccc1 | 4 | -20 | -7 | 1.3 | -6 | 1
Cc1cc2n(n1)C(c1sccc1C)Nc1ccccc1-2 (stereo not given) | 12 | 4 | 10 | 1.3 | 19 | 1
CC(NC(=O)C1CCCCC1)c1ccc2c(c1)OCCO2 (stereo not given) | -11 | 10 | -2 | -0.2 | 13 | 12
COc1ccc(CCNC(=O)CSCc2ccc(Br)cc2)cc1OC | 20 | ? | -2 | 1.6 | 1 | 1
Cc1cc(C)nc(SCc2cccc(C(=O)O)c2)n1 | -12 | 4 | 5 | 0.4 | 4 | 4
COc1ccc(C(=O)NNC(=O)CSc2nnc3ccccn23)cc1OC | -1 | nt | 4 | -0.4 | 5 | 0
O=C(OCCO)c1c(C2=CCCCC2)oc2c1C(OCCO)CCC2 (stereo not given) | nt | nt | 1 | -0.5 | -3 | nt
CC(=O)C1=NOC(CNC(=O)c2c(-c3ccccc3Cl)noc2C)C1 (stereo not given) | 17 | -7 | 0 | -0.4 | -11 | -2
Cc1c(C(=O)N2CCCC2)c(S(=O)(=O)NCC(C)c2ccccc2)c(C)n1C (stereo not given) | 28 | 26 | -18 | 1.7 | 4 | -9
O=C(CSc1nc2ccccc2c(=O)n1CCCN1CCOCC1)Nc1cccc(S(=O)(=O)N2CCCCCC2)c1 | -27 | 3 | -5 | -0.3 | -1 | -25
Cc1ccc(N2C(S)=C(C#N)C(=O)NC2c2cccs2)cc1 (stereo not given) | 0 | -4 | nt | 1.3 | -3 | -9
Cc1ccc(C(=O)N2CCC(Cc3ccccc3)CC2)cc1[N+](=O)[O-] | 0 | -11 | -4 | -0.2 | -5 | -2
O=C(O)c1ccc2c(c1)OCCO2 | 5 | -3 | 4 | -0.2 | 5 | -29
CCCc1nc(N)c(C#N)c(-c2ccco2)c1CC | 2 | ? | 4 | 1.0 | 5 | -11
CCOCCCNC(=O)Cc1c(C(=O)O)[nH]c2ccc(Cl)cc12 | -3 | 6 | 2 | -0.5 | 4 | -6
CCOC(=O)C(C#N)C(=N)C1C(=O)OC2CCCCC21 (stereo not given) | 2 | nt | 7 | -0.7 | -2 | -5
CC[C@@H](C)[C@@H]1CN([C@@H](C)CN2CCC[C@H]2CN2C(N)=NC[C@H]2C(C)C)C(=N)N1CCc1ccc(Cl)c(Cl)c1 | -10 | nt | 0 | -0.6 | 0 | nt
COc1cccc(COC(=O)C2CC(=O)N(Cc3ccco3)C2)c1OC (stereo not given) | -15 | 12 | -7 | -0.5 | 21 | -6
CC(=O)Nc1cccc(NC(=O)c2ccc(COc3ccccc3)cc2)c1 | -2 | 9 | 4 | 0.8 | 2 | -1
CC(=O)Nc1cc(-c2cccc(C(=O)NCCN(C)C)c2)cn2c(-c3ccc(F)c(Cl)c3)cnc12 | nt | nt | -12 | -0.4 | -5 | -9
Cc1cccn2c(=O)c(C=O)c(N3CCN(c4ccccc4)CC3)nc12 | 19 | 20 | -14 | -0.6 | -13 | 3
c1ccc(CSc2nnc(-c3ccco3)n2Cc2ccccc2)cc1 | 23 | -6 | -9 | 4.6 | -12 | -40
COc1ccc(C2CC(c3ccccc3)=NN2C(=O)c2cccs2)cc1 (stereo not given) | 7 | -2 | -9 | -0.1 | -4 | -10
Cc1ccc(S(=O)(=O)N2[C@@H](c3cccc(Cl)c3)C(C(=O)O)=CC[C@H]2c2ccc(Cl)c(Cl)c2)cc1 | 9 | -26 | nt | 0.3 | 2 | -3
NC(=O)C1CCN(C(=O)c2cnn(-c3ccccc3)c2NC(=O)c2cccc(F)c2)CC1 | -10 | 17 | 15 | 0.4 | 2 | 0
CNC(=S)N/N=C/c1ccc(C(C)C)cc1 | 6 | nt | -1 | -0.5 | 2 | -1
Nn1cnc2c([nH]c3ccccc32)c1=O | -10 | 21 | 4 | -0.3 | 13 | 9
O=c1oc2ccccc2c(O)c1C=Nc1cccnc1 | 32 | 9 | 1 | -1.0 | 2 | -15
CCC1CCC(NC(=O)Nc2cccc(OC)c2)CC1 (stereo not given) | -4 | -5 | 3 | -0.6 | 2 | -9
COc1cccc(Nc2nnc(SCC3CCCCO3)s2)c1 (stereo not given) | 4 | -12 | -11 | -0.8 | -8 | -14
O=C1COc2ccc(S(=O)(=O)N3CCN(c4cccc(Cl)c4)CC3)cc2N1 | -2 | 6 | nt | -1.0 | 1 | -9
CCCCCCC1CCC(c2nc(-c3ccncc3)no2)CC1 (stereo not given) | 26 | 4 | 4 | 0.0 | 8 | -11
Oc1ccc(C[C@H]2CN([C@@H](Cc3ccccc3)CN3CCC[C@@H]3CN3C(=S)NC[C@@H]3Cc3ccccc3)C(=S)N2CC2CCCCC2)cc1 | 0 | nt | -5 | -0.4 | -13 | 0
Cc1ccccc1SCC(=O)NCCCn1ccnc1 | 7 | 4 | -1 | -0.2 | 7 | -8
Cc1ccc(S(=O)(=O)N2CCCCC2)cc1C(=O)N(C)CC(=O)Nc1ccc(Cl)c(C(F)(F)F)c1 | -10 | 3 | 7 | 0.3 | 4 | 7
COc1cccc(NC(=O)N(Cc2cc3cc(C)cc(C)c3[nH]c2=O)CC2COCCO2)c1 (stereo not given) | 37 | 15 | -3 | 0.0 | -4 | -16
COc1cccc(-c2cc(C(=O)NC3CCCCC3)no2)c1 | -11 | 2 | 5 | -0.3 | -4 | -4
Cc1c(NC(=O)COC(=O)C2CC3C=CC2C3)c(=O)n(-c2ccccc2)n1C (stereo not given) | 8 | 10 | 3 | -0.2 | -1 | -5
COc1ccc(Cn2c(=O)n(Cc3ccco3)c(=N)c3c4c(sc32)COC(C)(C)C4)cc1 | 31 | -2 | -20 | 3.5 | -19 | 6
COc1cc2c(cc1OC)CN(CC(=O)Nc1ccccc1SC)CC2 | -6 | -2 | -8 | 1.1 | -4 | -7
